Cruzain noTriton – qHTS Assay for Promiscuous and Specific Inhibitors of Cruzain (without detergent) | Cruzipain (Trypanosoma cruzi), P25779 | purified cruzain, Z-FR-AMC fluorescence, no detergent | Potency, µM, for the others: max response, negative = inhibition, most hits filed as inhibitors | 200,000 tested, 2.3% active | AID 1476, 2009; active = well fitted curve in the direction sought with a large enough effect; inconclusive = small, poorly fitted or top-dose-only effect, or another doubt; inactive = no such curve, though single readings can be large; an effect the other way counts as inactive or inconclusive;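 also: plate controls were enzyme without inhibitor for no effect and buffer without enzyme for full effect; nearly all actives have a fitted effect of over 40% in size; top concentration of the series not given in the record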
Target sequence (P25779 123-467 limits assumed): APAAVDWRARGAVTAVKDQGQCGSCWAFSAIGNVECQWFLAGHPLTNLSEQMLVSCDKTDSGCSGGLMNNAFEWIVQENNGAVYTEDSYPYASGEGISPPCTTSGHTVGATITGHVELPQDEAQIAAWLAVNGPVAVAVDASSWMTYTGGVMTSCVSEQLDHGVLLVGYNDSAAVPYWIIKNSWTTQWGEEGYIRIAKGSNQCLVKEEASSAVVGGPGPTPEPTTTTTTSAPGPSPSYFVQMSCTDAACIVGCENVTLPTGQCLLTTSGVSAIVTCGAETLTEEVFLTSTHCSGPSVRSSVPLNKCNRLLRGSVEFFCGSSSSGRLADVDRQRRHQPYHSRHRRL
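Detergent-free condition (0.00005% Triton X-100) in acetate buffer pH 5.5 with DTT. 1.5 nM enzyme and compound were pre-mixed 15 min, then 2 uM Z-FR-AMC substrate added; reaction progress from fluorescence change between first and third reads (60 s).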
Lassa entry inh – qHTS for Inhibitors of binding or entry into cells for Lassa Virus; 300,000 tested, 1.2% active; AID 540256, 2011; Lassa virus pseudotype entry inhibition, cell reporter; control for the full effect not named in the record; Potency, µM (titrated, usually from 37.9 µM), without a hit: at the highest dose activity change, negative = inhibition, most hits filed as inhibitors; active means well fitted inhibition curve with a large enough effect; inconclusive means small, poorly fitted or top-dose-only effect, or effect the other way; inactive means flat fitted curve, though single readings scatter; tested in HEK293 cells; also: % is scaled to controls: 0 for no effect and ±100 for the full control effect; nearly all actives have a fitted effect of over 50% in size; luciferase read-out
NS1 inh – qHTS Assay for Inhibitors of Influenza NS1 Protein Function. S. cerevisiae slowed by influenza A NS1, growth recovery by OD600. Potency, µM (highest dose often 46.1 µM), for the others: top-dose activity, positive = more growth. 270,000 tested, 0.4% active. AID 2326, 2010; also: actives are rising curves; nearly all actives have a fitted effect of over 50% in size
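S. cerevisiae expressing influenza A NS1, grown in glucose, washed, then diluted 1:100 into pH 6.0 -URA galactose medium with 23 nl compound. Growth recovery read as OD600; NS1-free strain serves as control.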
SARS PLP yeast – qHTS of Yeast-based Assay for SARS-CoV PLP | S. cerevisiae expressing SARS-CoV PLpro, growth rescue; control for the full effect not named in the record | Potency, µM (top dose mostly 32.9 µM), inactives show at the highest dose activity, positive = growth rescue | 330,000 tested, 0.19% active | AID 485353, 2010; also: 0% is about no effect; nearly all actives have a fitted effect of over 55% in size; growth read by luminescence after 48 h
RE007 growth inh – qHTS Assay for Inhibitors of the HIV-1 protein Vpr; S. pombe RE007 Vpr strain, BacTiter-Glo ATP luminescence, 24 h; control for the full effect not named in the record; Potency, µM (titrated, usually from 92.2 µM), for the others: at the top dose activity change, negative = less growth; 360,000 tested, 0.21% active; active = well fitted falling curve with a large enough effect; inconclusive = small, poorly fitted or top-dose-only effect; inactive = no such curve, though single readings can be large or run the other way;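 also: % is scaled to controls: 0 for no effect and ±100 for the full control effect; nearly all actives have a fitted effect of over 50% in size; the assay follows cell death caused by Vpr and the record does not say whether a fall means rescue or toxicity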
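Fission yeast RE007 carrying one integrated HIV-1 vpr copy, seeded at OD 0.01 in PMG+AL medium with 23 nL pinned compound. Grown 24 h at 30 degrees; viability read by BacTiter-Glo luminescence after 5 min.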
StopGo reporter – High Throughput Screening for Foot and Mouth Disease Virus Antivirals; human cells with a luciferase reporter of 2A StopGo recoding; control for the full effect not named in the record; Potency, µM (series often up to 57.9 µM), inactives show at the top dose signal change, negative = less light; 410,000 tested, 1.2% active; AID 1159524, 2015; active = well fitted falling curve with a large enough effect; inconclusive = small, poorly fitted or top-dose-only effect; inactive = no such curve, though single readings can be large or run the other way; tested in HEK293T cells; also: % is scaled to controls: 0 for no effect and ±100 for the full control effect; nearly all actives have a fitted effect of over 45% in size; luciferase light after 4 h
Cruzain Triton – qHTS Assay for Promiscuous and Specific Inhibitors of Cruzain (with detergent); purified cruzain, Z-FR-AMC fluorescence, 0.01% Triton; Potency, µM, for inactives: max response, negative = inhibition, actives largely listed as inhibitors; 200,000 tested, 0.43% active; active = well fitted curve in the direction sought with a large enough effect; inconclusive = small, poorly fitted or top-dose-only effect, or another doubt; inactive = no such curve, though single readings can be large; an effect the other way counts as inactive or inconclusive;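 also: plate controls were neutral wells for no effect and buffer without enzyme for full effect; nearly all actives have a fitted effect of over 40% in size; top concentration of the series not given in the record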
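Detergent-containing run (0.01% Triton X-100) in acetate buffer pH 5.5 with 5 mM DTT: enzyme at 1.5 nM final, 15 min compound preincubation at room temperature, then 2 uM Z-FR-AMC substrate. Activity taken as 60 s fluorescence increase at 360/450 nm.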
MARV entry inh – qHTS for inhibitors of binding or entry into cells for Marburg Virus; 300,000 tested, 1.8% active; Potency, µM (doses to about 37.8 µM), for the others: at the highest dose activity change, negative = inhibition, usual class: inhibitors; Marburg virus pseudotyped entry inhibition, cell reporter; control for the full effect not named in the record; about a third of the inactives were read at about 46 µM; AID 540276, 2011; active = well fitted inhibition curve with a large enough effect; inconclusive = small, poorly fitted or top-dose-only effect, or effect the other way; inactive = flat fitted curve, though single readings scatter; tested in HEK293 cells; about a fifth of its hits are not listed in these tables; also: % is scaled to controls: 0 for no effect and ±100 for the full control effect; luciferase read-out
* = called active by the depositor; u = inconclusive; x = no result given; & = joins results of further samples; [ ] = another dose, or the depositor's remark. Unless noted, calls follow the shape of the dose curve; as a rule, active means well fitted rising curve with a large enough effect; inconclusive means small, poorly fitted or top-dose-only effect; inactive means no such curve, though single readings can be large or run the other way. Potency is read from the fitted curve at half-maximal effect.

SMILES | Cruzain noTriton | Lassa entry inh | NS1 inh | SARS PLP yeast | RE007 growth inh | StopGo reporter | Cruzain Triton | MARV entry inh
Cc1noc(C)c1COc1ccc(C(=O)Nc2ncccc2O)cc1 | x | 3% | x | 0% | 3% | 4% | x | 1%
O=c1nc(Nc2ccc(OCc3ccccc3)cc2)sc2ncccc12 | x | u | x | 0% | 6% | -17% | x | u
CCOC(=O)C1(Cc2cccc(OC)c2)CCN(Cc2cccnc2)CC1 | x | -2% | -6% | -2% | -5% | -25% | x | -1%[46.1 µM]
CCOC(=O)c1cc2ccc3ccccc3c2s1 | -10% | u | -5% | -42% | -28% | 49%[activator] | -5.3% | 1%
CCOC(=O)C(CC)Sc1ccc2nnc(CCNS(=O)(=O)c3ccccc3)n2n1 (stereo not drawn) | x | -27%[46.1 µM] | x | 1% | -10% | 1% | x | 0%[46.1 µM]
COc1cccc(-n2nnc(-c3nc(-c4cccs4)no3)c2N)c1 | 4% | 19%[46.1 µM] | x | x | x | 13% | 0.3% | x
Cc1cccc(NC(=S)NC23CN4CN(CN(C4)C2)C3)c1 | x | 0%[46.1 µM] | 3% | -1% | 0% | -3% | x | -18%[46.1 µM]
CCNC(=O)COC(=O)/C=C/c1cccc(F)c1 | x | 2%[46.1 µM] | x | 2% | -12% | -5% | x | u
CN(C)CCC(C(=O)c1ccccc1)c1ccccn1 (stereo not drawn) | x | u | x | x | -2% | 9% | x | u
Cc1ccccc1-c1cc(C(=O)N2CCCC2)c2ccccc2n1 | x | 16% | 7% | -10% | 10% | 1% | x | 10%
CCOC(=O)c1sc2nc(SCC#N)n(CCCN3CCCC3=O)c(=O)c2c1C | u | -6% | 2% | 0% | 2% | -16% | -3.1% | 15%
CCSc1n[nH]c(=O)[nH]c1=O | -3% | -16% | u | 1% | -13% | -11% | 1.7% | -19%
COc1ccc(Cl)cc1N(CC(=O)NC(C(C)C)C(C)C)S(C)(=O)=O | u | 0% | -9% | -7% | 1% | 8% | -0.3% | -1%
Cc1ccc2nc(-c3ccc4c(c3)OCCO4)cc(C(=O)O)c2c1 | -4% | u | 3% | -8% | 18% | 8% | -6.6% | u
O=C(CSc1ccc([N+](=O)[O-])cn1)Nc1ccc(N2CCOCC2)c(Cl)c1 | x | x | 0% | 1% | 16% | u | x | x
CCCCn1c(=O)nc2n(-c3ccc(C)cc3)c3ccccc3cc-2c1=O | -6% | 29% | 7% | 6% | 6% | -20% | -12% | 4%
O=C(Cc1ccccc1)Nc1nc(=O)c2ccccc2s1 | u | -7% | 29% | u | 20% | 15% | 9.2% | 8%
CCOC(=O)C1=C(CNC(C)(C)CC(C)(C)C)NC(=O)NC1c1cccc([N+](=O)[O-])c1 (stereo not drawn) | x | x | 6% | -1% | 3% | -15% | x | x
CC(=O)Nc1ccc(NC(=O)CSc2nc3ccccc3nc2N2CCC(C)CC2)cc1 | u | u | 10% | -1% | -1% | 9%&-17% | -7.7% | 1%&0%[46.1 µM]
CCOC(=O)c1c(NC(=O)COc2ccc(C)cc2C(C)(C)C)sc2c1CCC(C)C2 (stereo not drawn) | 7% | 12%[46.1 µM] | x | x | x | -10% | 0.3% | x
CCOC(=O)C1=C(C)NC(=O)C(C(N)=O)C12CCCCC2 (stereo not drawn) | 4% | -5% | 0% | -2% | -7% | -20% | 0.3% | -2%[46.1 µM]
CCOC(=O)C1CCCN(c2cc(=O)n(-c3ccccc3Cl)c(=O)[nH]2)C1 (stereo not drawn) | -5% | x | 18% | 2% | 9% | -6% | 0.2% | x
COCCn1c(C)cc(C2=NNC(=Nc3ccc(F)cc3)SC2)c1C | -4% | u | u | 0% | 1% | 17% | 2.4% | -22%
O=C(Nc1c(-c2ccccc2)nc2ccccn12)c1cccs1 | -3% | -1% | 3% | 6% | -9% | -10% | -1.5% | 10%
CCCC(=O)NC(C)c1nc2ccccc2n1C(C)C (stereo not drawn) | -5% | x | -5% | 5% | 5% | -13% | -1.1% | x
Cc1cc(SCC(=O)N/N=C/c2ccc(O)c(O)c2O)c(C)cc1Br | -16% | u | -95% | u | u | -30% | -20% | 1%
Cc1ccsc1/C=C/c1ccc2cccc(O)c2n1 | -5% | u | -180% | -16% | u | 0% | -7.8% | u
CN(C)c1ccc(/C=N/NC(=O)c2nnn(-c3nonc3N)c2CN(C)c2ccccc2)cc1 | x | x | u | 6% | -1% | -7% | x | x
COc1ccc(CCNc2nc3c(-c4cccc(C)c4)nnn3c3ccccc23)cc1OC | 4% | 10%[46.1 µM] | x | x | x | 1% | 0.6% | 5%[46.1 µM]
CCOc1ccc(NC(=O)C(C)SC(N)=O)cc1 (stereo not drawn) | -2% | 0% | -63% | 2% | 5% | x | -9.7% | 10%
CC1=NN(c2ccccc2)C(=O)C1/C=C1/C(=O)NC(=O)N(c2cccc(C)c2)C1=O (stereo not drawn) | 2% | x | 28% | 8% | x | x | -7.7% | 0%
Cc1ccc(C(=O)N/C(=C/c2ccc(-c3ccc(Br)cc3)o2)C(=O)NC2CCS(=O)(=O)C2)cc1 (stereo not drawn) | u | -1% | u | 0% | 6% | -12% | -4.5% | 3%
O=C1/C(=C/c2ccc(C(=O)O)cc2)CCC/C1=C\c1ccc(C(=O)O)cc1 | -5% | 5% | 23% | 15% | 10% | -8% | -10% | -12%
O=C1C(=O)N(Cc2ccccc2)C(c2cccc(O)c2)/C1=C(\O)c1ccc2c(c1)OCCO2 (stereo not drawn) | x | x | -10% | -15% | -17% | -5% | x | x
COc1ccc(S(=O)(=O)Nc2ccc(N(C)C(C)=O)cc2)cc1 | -8% | -12% | 4% | -12% | -1% | 51%[activator] | 0.0% | u
C#CCNC(=O)C1=C[C@H](c2ccc(C(F)(F)F)cc2)C[C@H](OCc2ccc(CO)cc2)O1 | x | x | 0% | -3% | -8% | -11% | x | x
Cc1ccc(S(=O)(=O)N(C)C)cc1NC(=O)c1ccc2ccccc2n1 | x | x | 10% | -1% | 7% | -12% | x | x
Cc1ccc(C(=O)c2c[nH]c3c(F)cc(F)cc3c2=O)cc1 | -13% | -2% | 2% | 12% | -7% | -23% | -1.8% | -22%
Cc1ccc(CN2CCC(n3nccc3NC(=O)C3CCOC3)CC2)cc1C (stereo not drawn) | x | 7% | 13% | u | -9% | -21% | x | 4%
COc1ccc(-c2cc(C(=O)N3CCN(c4ccccc4O)CC3)c3ccccc3n2)cc1OC | x | u | -32% | -10% | 10% | -11% | x | u
COc1cc(C(=O)Oc2ccc3ccc(O)cc3c2)cc(OC)c1OC | x | x | 20% | -2% | 2% | 27% | x | x
CCN1CCc2c(OCc3ccc(C(=O)OC)o3)cccc2C1=O | x | -12% | x | -2% | 3% | u | x | -10%[46.1 µM]
COc1ccc(NS(=O)(=O)c2ccc(N3CCCC3)c(N)c2)cc1 | x | u | 11% | 0% | -26% | -12% | x | u
CC/C(=C/c1ccccc1)c1cccc2[nH]c3c(OC)cccc3c12 | x | x | 26% | -10% | -7% | -9% | x | x
O=C(c1ccc(N2CCOCC2)c([N+](=O)[O-])c1)N1CCN(Cc2ccccc2)CC1 | x | 5% | 1% | 3% | -7% | -5% | x | 10%[46.1 µM]
CCn1nnnc1NCc1ccc(OCc2ccc(F)cc2Cl)c(OC)c1 | x | u | x | 6% | 2% | -25% | x | 10µM*
COc1ccc(/C=C/C(=O)NCCSCc2ccco2)cc1OC | x | x | -1% | 0% | 2% | 7% | x | x
CC(=O)c1c(C)oc2c1cc(NS(=O)(=O)c1ccc(C(C)(C)C)cc1)c1ccccc12 | u | -26%[46.1 µM] | x | x | x | -28% | -3.0% | x
O=C(Nc1nccs1)c1ccc(COc2ccccc2Br)o1 | u | -22% | -16% | -8% | 4% | x | -7.5% | u
COc1ccc(N2CCN(C(=O)CCNS(=O)(=O)c3ccccc3)CC2)cc1 | x | 7% | 5% | 2% | -27% | -1% | x | 2%[46.1 µM]
Cc1cc(CN(C)C(=O)c2ccc(OC3CCN(Cc4ccccn4)CC3)cc2)on1 | x | x | -7% | 0% | -7% | 0% | x | x
COc1cc(NC(=O)COC(=O)/C=C/c2ccc(O)c(OC)c2)cc(OC)c1 | x | -13% | x | -1% | 7% | u | x | -41%[46.1 µM]
Cc1ccc(C(=O)NCC(=O)OCC(=O)NC(C)c2ccccc2)s1 (stereo not drawn) | x | x | 3% | -1% | 3% | -13% | x | x
Cc1cc(-n2ccnc2)n2c(nc3ccccc32)c1C#N | -5% | 1% | 5% | u | 15% | x | -0.5% | u
O=C(CSCCN1C(=O)c2ccccc2C1=O)Nc1ccc2ccccc2c1 | 9% | 10% | -3% | -17% | 5% | u | -5.6% | 5%
CCOc1ccc(OCC)c(-c2c(=O)n(OCc3ccccc3Br)c3ccccc3[n+]2[O-])c1 | 3% | u | 12% | 1% | -12% | -24% | 0.5% | -20%
COc1cc(CC(=O)Nc2nc(C)cs2)cc(OC)c1OC | x | u | x | 0% | -2% | -26% | x | u
CCSCCOC(=O)C1=C(C)NC2=C(C(=O)CCC2)C1c1coc2ccccc2c1=O (stereo not drawn) | u | -2% | -17% | 2% | -15% | -7% | -5.5% | u
CCc1ccc2occ(CC(=O)Nc3c(C(=O)c4ccccc4)oc4ccccc34)c2c1 | -16% | 4%[46.1 µM] | x | x | x | -15% | -1.4% | 15%[46.1 µM]

Bioassay records: PubChem BioAssay, National Center for Advancing Translational Sciences (NCATS)
